Screening results from PubChem BioAssay.
CapD inh: blocks the Bacillus anthracis CapD enzyme. purified CapD enzyme, fluorescence intensity read-out; active compounds read low; some hits fall short of the stated cut. z-score (concentration not given with the values). hit rate 0.23% among 140,000. AID 492967;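 active = z-score under -4 in either of two replicates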;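 note: stock transfer was 100 nL into about 40 µL; score is relative to mean and spread of the plate; one replicate is shown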
AID504770: E. coli YBA685 growth inhibition, screen for V. cholerae RctB inhibitors. E. coli YBA685 rctB-dependent plasmid, OD600 growth, 3 h; active compounds read low. z-score (concentration not given with the values). hit rate 0.27% among 130,000;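 active = z-score under -2 on both plates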;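 note: wells of about 30 µL received 100 nL stock; score is relative to mean and SD of the test wells; the first replicate is given; strong numbers were not always called active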
* = called active by the depositor. The list is partial, so the mix of outcomes need not match the whole.

Screening O=C(Nc1ncnc2sc3c(c12)CCCC3)C(F)(F)F returned CapD inh 1.5 and AID504770 0.95.
OCc1nc(-c2ccc(Cl)c(Cl)c2)cs1 was read as CapD inh -0.89 and AID504770 -0.7.
CCS(=O)(=O)c1ccc2oc(=O)c(/C=C(\O)C(C)(C)C)nc2c1 was read as CapD inh -0.34 and AID504770 -0.65.
`Cc1cccc(S(=O)(=O)NCc2ccccc2)c1` gave CapD inh 0.35 and AID504770 -0.05.
`O=C1Nc2c(S(=O)(=O)Nc3ccccc3)cc(S(=O)(=O)Nc3ccccc3)c3cccc1c23` gave CapD inh -0.39.
For Cc1nc(C)c(-c2ccnc(-c3ccc(Cl)cc3)n2)s1 the results were CapD inh -1.2 and AID504770 -0.4.
`CCOC(=O)c1ccc(NC(=S)NCCN2CCNC2=O)cc1` gave CapD inh -1.2 and AID504770 1.5.
Screening CC(=O)Oc1ccc2c(oc(=O)c3ccccc32)c1C returned AID504770 -0.3.
`c1ccc(-c2ccc(-c3[nH]c(-c4ccccc4)nc3-c3ccccc3)cc2)cc1` gave CapD inh 79.
For Nc1cc(-c2cccc(C(F)(F)F)c2)[nH]n1 the results were CapD inh 0.59 and AID504770 -0.95.
For CCOC(=O)Cn1ncn2c(c(-n3cccc3)c3c4c(sc32)CCCC4)c1=O the results were CapD inh 0.18 and AID504770 0.15.
`CCC(=O)NC(c1ccccc1OC)c1cc(Cl)c2cccnc2c1O` (configuration not stated) gave AID504770 0.1.
Screening Cn1c(=O)n2ncnc2c2c3c(sc21)CCCC3 returned CapD inh -0.61 and AID504770 1.1.
`O=C(O)C1CC(=O)N(CCc2ccccc2)C(=NCCc2ccccc2)S1` (configuration not stated) gave CapD inh 0.28 and AID504770 -0.55.
`Oc1cccc(N2Cc3ccccc3C2)c1` gave CapD inh -0.065 and AID504770 0.1.
Screening c1ccc2c(c1)nc1n2CCNC1 returned CapD inh 0.9 and AID504770 0.7.
`O=C(O)CCC(=O)Nc1ccc(-n2ccc(C(F)(F)F)n2)cc1` gave CapD inh -0.46 and AID504770 -0.45.
Screening O=C(NNS(=O)(=O)c1cc(Cl)c(Cl)cc1Cl)c1cccnc1 returned CapD inh -0.12.
For O=C(Nn1cnnc1)c1cccc(C(=O)Nn2cnnc2)c1 the results were AID504770 -0.95.
Screening CCOC(=O)c1csc(Nc2ccccn2)n1 returned CapD inh -0.32 and AID504770 -0.7.
CCOC(=O)N/N=C/c1c[nH]c2ccccc12 was read as CapD inh 0.15.
Screening O=C(N/N=C1\CC2CC=CC12)c1ccc(Br)cc1 (configuration not stated) returned AID504770 -0.35.
`CCc1ccc(S(=O)(=O)/N=C2/C=C(Nc3ccccc3)C(=O)c3ccccc32)cc1` gave CapD inh -0.54 and AID504770 -0.55.
Screening CC(C)(C)c1ccc(CS(=O)(=O)CCOc2ccccc2)cc1 returned CapD inh 0.26 and AID504770 -0.1.
CSc1nc2ccc(NC(=O)c3cc(=O)c4ccccc4o3)cc2s1 was read as CapD inh -0.33 and AID504770 -0.85.
Screening O=C(O/N=C/c1ccc2c(c1)OCO2)c1ccc([N+](=O)[O-])cc1 returned CapD inh 0.25.
Screening CN(C(=O)Oc1cccc2cccnc12)c1ccccc1 returned CapD inh -0.39 and AID504770 -0.05.
Screening CCn1cc(S(=O)(=O)N2c3ccc(F)cc3CCC2C)cn1 (configuration not stated) returned CapD inh -0.79 and AID504770 2.2.
For CC1(C)CC(=O)C2=C(C1)N(c1ccc(O)cc1)C(=O)CC2c1ccc([N+](=O)[O-])cc1 (configuration not stated) the results were CapD inh 2.2.
For O=C(c1ccc(OCc2ccnc(Cl)c2)cc1)N1CCN(c2cccc(C(F)(F)F)c2)CC1 the results were CapD inh -0.27.
For Cc1ccc(C2=NN(C(=O)COC(=O)c3cc4c(C)nn(-c5ccc(F)cc5)c4s3)C(c3ccco3)C2)cc1 (configuration not stated) the results were AID504770 2.2.
Cc1cc(O)ccc1N/C=C/c1onc(-c2c(Cl)cccc2Cl)c1C#N was read as CapD inh -1.2.
CCOC(=O)N1CCC(NS(=O)(=O)c2cc(C)ccc2OC)CC1 was read as CapD inh 0.81.
`CC(C)C(NC(=O)c1ccco1)C(C)C` gave CapD inh -0.85 and AID504770 0.4.
For NC(=S)/N=C1/CCN(c2ccccc2)N1 the results were AID504770 -0.25.
`CCOC(=O)CCc1c(C)c2ccc(OCC(=O)N(CC)CC)c(C)c2oc1=O` gave CapD inh 93 and AID504770 -0.55.
`CC1(C)CC(=O)c2c(S(C)(=O)=O)sc(Br)c2C1` gave CapD inh -0.1.
`Cc1ccc(C#N)c(SC(C)(C)C(=O)O)n1` gave CapD inh -0.17 and AID504770 0.75.
For Nn1c(CSc2ccccn2)nnc1CSc1ccccn1 the results were CapD inh -0.04 and AID504770 -0.85.
Screening Cn1c(=O)c2[nH]c(C3CCCC3)nc2n(C)c1=O returned CapD inh -0.19.
`CC1=C(C(=O)Nc2ccc(Br)cn2)C(c2ccc(N(C)C)cc2)C2=C(CCCC2=O)N1` (configuration not stated) gave CapD inh 0.68.
Screening CCn1c(C)nnc1SCc1ccccc1 returned CapD inh 0.22 and AID504770 -0.25.
`O=C(COc1ccc(Cl)cc1Cl)N1CCN(C2=NS(=O)(=O)c3ccccc32)CC1` gave CapD inh 0.8.
`COc1ccc(N=Nc2c(N)n[nH]c2N)cc1` gave AID504770 -0.4.
c1ccc(-c2noc(CSc3nnc(Cc4cccs4)n3C3CCCCC3)n2)cc1 was read as AID504770 0.45.
CC1C(=O)NN=C1C(=O)N=Nc1c(O)[nH]c2ccccc12 (configuration not stated) was read as CapD inh -2.1 and AID504770 -0.4.
Screening COc1ccc(N(Cc2ccno2)S(=O)(=O)c2ccccc2)cc1 returned AID504770 -0.95.
CCOc1no[n+]([O-])c1-c1ccccc1 was read as AID504770 -0.15.
For Brc1ccc(-c2nnc(CSc3nnc(-c4ccco4)n3C3CCCCC3)o2)cc1 the results were AID504770 1.4.
COc1cc2cc3c4cc(OC)c(OC)cc4cc[n+]3c(C)c2cc1OC was read as CapD inh 0.04 and AID504770 -0.35.
`CC1CCN(S(=O)(=O)c2ccc3nc(-c4ccccn4)cc(C(=O)NC4CCCC4)c3c2)CC1` gave CapD inh -0.27 and AID504770 -0.2.
For Cc1cc(N2CCCC2)c2ccccc2n1 the results were AID504770 0.15.
`O=C(CNCC1CCCO1)NCc1ccco1` (configuration not stated) gave AID504770 0.4.
`CC1CC(C)CN(c2nc3nonc3nc2Nc2ccc3c(c2)OCO3)C1` (configuration not stated) gave CapD inh -0.38.
`COc1ccc(NC(=O)Nc2cccc(C)c2)cc1` gave AID504770 -0.85.
COc1cc(-c2nnc(SCC(=O)N3CCCC3)o2)cc(OC)c1OC was read as AID504770 0.6.
`CCOC(=O)C1=C(CN2CCOCC2)NC(=O)NC1c1ccc(Cl)cc1` (configuration not stated) gave CapD inh -0.045 and AID504770 0.35.
Screening COc1cc(C2=NC(O)C(=O)Nc3ccc(Cl)cc32)ccc1O (configuration not stated) returned CapD inh -0.12 and AID504770 -0.1.
C=CCOc1ccc2c(=O)cc(C(=O)OCC)oc2c1 was read as CapD inh 0.48.
CC(C)n1c(=O)[nH]c2cc(C(=O)Nc3ccccc3N3CCCC3)ccc21 was read as AID504770 -1.2.
Screening O=C1NC(=O)C(CCc2ccncc2)(CCc2ccncc2)C(=O)N1Cc1ccccc1 returned CapD inh 0.2 and AID504770 0.1.
For Cn1c(SCC(=O)N2CCCC2=O)nc2ccccc21 the results were AID504770 1.9.
`CSc1nnc(-c2ccco2)c(-c2ccco2)n1` gave CapD inh -2 and AID504770 1.9.
`Clc1ccccc1CSC1=NCCCN1C1CCCCC1` gave CapD inh 0.2.
For CS(=O)(=O)c1cccc(C(=O)N2CCCN(Cc3ccccc3)CC2)c1 the results were CapD inh -0.27.
`COC(=O)C1C(=O)C2=C(CC1C)NC(C)=C(C(=O)OC1CCCC1)C2c1ccc(C)o1` (configuration not stated) gave CapD inh 4.1 and AID504770 -0.6.
Screening CCn1cc(C(=O)O)c(=O)c2cc(F)c(N3CCN(C(=S)NC)CC3)cc21 returned CapD inh 9.7 and AID504770 -7.2*.
Screening COc1cccc(C2C3=C(CC(c4ccccc4)CC3=O)Nc3ccccc3N2C(=O)C2CC2)c1 (configuration not stated) returned CapD inh 12.
Screening CC(=O)N1CCc2cc(NC3CCN(Cc4ccccc4)CC3)ccc21 returned CapD inh 0.41.
For O=C(Cn1nnc(-c2ccccc2NC(=O)c2cnccn2)n1)Nc1ccc2c(c1)OCCO2 the results were AID504770 1.6.
`O=C(NCCN1CCOCC1)c1ccc2cc[nH]c2c1` gave CapD inh 54.
O=C(COc1ccc(-c2nccc(-c3ccccn3)n2)cc1)NCc1ccccc1 was read as CapD inh 0.
For O=C(O)c1ccccc1C1NC(C(=O)O)CS1 (configuration not stated) the results were CapD inh -1.1 and AID504770 -0.3.
`O=C(Nc1ccc(F)cc1)c1ccc2c(=O)n(CC3CCCO3)c(=S)[nH]c2c1` (configuration not stated) gave CapD inh 0.44.
For c1coc(-c2nc3ccccc3n2CCC2CCCCC2)c1 the results were CapD inh 2.6 and AID504770 -0.8.
For COC(=O)c1cc(S(=O)(=O)N2CCOCC2)oc1C the results were CapD inh 9.5 and AID504770 -0.7.
CCOC(=O)c1ccccc1Sc1ccccc1C(=O)OC was read as CapD inh -0.98 and AID504770 -0.6.
Screening CC1(C)C(=O)OC(c2ccccc2)C(C)(C)C1=O (configuration not stated) returned CapD inh -0.05 and AID504770 -0.5.
For CNC(=O)COC(=O)c1ccc(-c2cccc(C(F)(F)F)c2)o1 the results were AID504770 0.2.
For COCCOc1ccccc1NC(=S)NNC(=O)c1ccc([N+](=O)[O-])cc1 the results were CapD inh -1.1.
For N#Cc1c(N)nc(SCc2ccccc2)c(C#N)c1-c1ccc(O)cc1 the results were CapD inh 7.8.
For Cc1cc(NC(=O)CSc2nc3c(sc4ccccc43)c(=O)n2CCc2ccccc2)n[nH]1 the results were CapD inh 72 and AID504770 -1.2.
Cc1ccc2nc(C)cc(C)c2c1 was read as CapD inh 7.5 and AID504770 1.6.
`COc1ccc(CC2(C)OC(c3ccncc3)=NN2C(C)=O)cc1` (configuration not stated) gave CapD inh 12 and AID504770 -0.2.
Screening CCC(Sc1nc2ccc(N3CCOCC3)cc2c(=O)n1CCc1ccccc1)C(=O)NCc1ccco1 (configuration not stated) returned CapD inh 1.3 and AID504770 -0.55.
Screening O=c1oc2ccccc2n1CCCOc1ccc2ccccc2c1 returned CapD inh 1.4 and AID504770 1.1.
For CCc1cc(C(=O)OC)c(NC(=S)Nc2cn(CC)nc2C(N)=O)s1 the results were CapD inh -1.3 and AID504770 -0.35.
`O=C(O)CCC(=O)Nc1ccc(Cl)cc1` gave CapD inh inactive and AID504770 -0.2.
`CC1(C)CN=C(Nc2ccc(Cl)cc2)S1` gave CapD inh 0.45.
c1ccc(CCN2CCOCC2)cc1 was read as CapD inh 0.15 and AID504770 0.35.
COc1cc(/C=C2/SC(=S)NC2=O)ccc1OC(=O)c1cccc(C)c1 was read as CapD inh -0.035 and AID504770 0.5.
CC(C)(C)c1cc2nc(C(F)(F)F)cc(NN)n2n1 was read as CapD inh 13 and AID504770 -1.4.
Screening O=C(CN1CCCCCC1=O)NCCc1ccc2c(c1)OCCO2 returned AID504770 1.5.
`CCOC(=O)c1cnc2c(C)cc(C)cc2c1Nc1cccc(C)c1C` gave CapD inh -0.085.

No new results follow: 22 of the compounds above.
`O=C(NCCN1CCOCC1)c1ccc2cc[nH]c2c1` gave CapD inh 54.
O=C(COc1ccc(-c2nccc(-c3ccccn3)n2)cc1)NCc1ccccc1 was read as CapD inh 0.
For O=C(O)c1ccccc1C1NC(C(=O)O)CS1 (configuration not stated) the results were CapD inh -1.1 and AID504770 -0.3.
`O=C(Nc1ccc(F)cc1)c1ccc2c(=O)n(CC3CCCO3)c(=S)[nH]c2c1` (configuration not stated) gave CapD inh 0.44.
For c1coc(-c2nc3ccccc3n2CCC2CCCCC2)c1 the results were CapD inh 2.6 and AID504770 -0.8.
For COC(=O)c1cc(S(=O)(=O)N2CCOCC2)oc1C the results were CapD inh 9.5 and AID504770 -0.7.
CCOC(=O)c1ccccc1Sc1ccccc1C(=O)OC was read as CapD inh -0.98 and AID504770 -0.6.
Screening CC1(C)C(=O)OC(c2ccccc2)C(C)(C)C1=O (configuration not stated) returned CapD inh -0.05 and AID504770 -0.5.
For CNC(=O)COC(=O)c1ccc(-c2cccc(C(F)(F)F)c2)o1 the results were AID504770 0.2.
For COCCOc1ccccc1NC(=S)NNC(=O)c1ccc([N+](=O)[O-])cc1 the results were CapD inh -1.1.
For N#Cc1c(N)nc(SCc2ccccc2)c(C#N)c1-c1ccc(O)cc1 the results were CapD inh 7.8.
For Cc1cc(NC(=O)CSc2nc3c(sc4ccccc43)c(=O)n2CCc2ccccc2)n[nH]1 the results were CapD inh 72 and AID504770 -1.2.
Cc1ccc2nc(C)cc(C)c2c1 was read as CapD inh 7.5 and AID504770 1.6.
`COc1ccc(CC2(C)OC(c3ccncc3)=NN2C(C)=O)cc1` (configuration not stated) gave CapD inh 12 and AID504770 -0.2.
Screening CCC(Sc1nc2ccc(N3CCOCC3)cc2c(=O)n1CCc1ccccc1)C(=O)NCc1ccco1 (configuration not stated) returned CapD inh 1.3 and AID504770 -0.55.
Screening O=c1oc2ccccc2n1CCCOc1ccc2ccccc2c1 returned CapD inh 1.4 and AID504770 1.1.
For CCc1cc(C(=O)OC)c(NC(=S)Nc2cn(CC)nc2C(N)=O)s1 the results were CapD inh -1.3 and AID504770 -0.35.
`O=C(O)CCC(=O)Nc1ccc(Cl)cc1` gave CapD inh inactive and AID504770 -0.2.
`CC1(C)CN=C(Nc2ccc(Cl)cc2)S1` gave CapD inh 0.45.
c1ccc(CCN2CCOCC2)cc1 was read as CapD inh 0.15 and AID504770 0.35.
COc1cc(/C=C2/SC(=S)NC2=O)ccc1OC(=O)c1cccc(C)c1 was read as CapD inh -0.035 and AID504770 0.5.
CC(C)(C)c1cc2nc(C(F)(F)F)cc(NN)n2n1 was read as CapD inh 13 and AID504770 -1.4.
